HSD17B inhib = qHTS Assay for Inhibitors of HSD17B4, hydroxysteroid (17-beta) dehydrogenase 4; 3-hydroxyacyl-CoA dehydrogenase type-2 (Homo sapiens), Q99714; recombinant HSD17B10, NADH fluorescence kinetic; many of its hits are not listed in these tables; Potency, µM (series often up to 57.1 µM), inactives show at the highest dose activity change, negative = inhibition, most hits filed as inhibitors; 75,000 tested, 7.6% active; AID 893, 2007; active = well fitted inhibition curve with a large enough effect; inconclusive = small, poorly fitted or top-dose-only effect; inactive = no such curve, though single readings can be large or run the other way;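 also: the protocol describes HADH2 (HSD17B10) and not the HSD17B4 of the title; nearly all actives have a fitted effect of over 70% in size; most hits overshoot -100% by far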
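20 nM HADH2, pH 9.0 Tris/Tween; cpd preinc 15 min RT; start w/ 1 mM NAD+ + 90 uM b-hydroxybutyryl-CoA; kinetic fluor ex360/em450 q30s x 4 min; delta last-first.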
Active calls of the source: *; ? = inconclusive; [ ] = another dose, or the depositor's remark. % is scaled to controls: 0 for no effect and ±100 for the full control effect; potency is read from the fitted curve at half-maximal effect.

| mol | HSD17B inhib |
| --- | --- |
| O=C(Nc1cccnc1)c1ccc2c(c1)C(=O)N(Cc1cccnc1)C2=O | 7% |
| CCN(CC)C(=O)CSc1nnc([C@@H](N)Cc2ccccc2)o1 | 7% |
| CC(=O)c1ccccc1NS(=O)(=O)c1c(C)nn(-c2ccccc2)c1C | -5% |
| CC(C)OC(=O)CCC1(C(=O)O)CCC(=O)NC1 (stereo unspecified) | 10% |
| O=C(CNCC1CCCO1)Nc1ccc(N2CCCCCC2)cc1 (stereo unspecified) | -5% |
| Cc1cccc(N(C)S(=O)(=O)c2ccc3c(c2)CCC(=O)N3)c1 | -2% |
| O=C(CCS(=O)(=O)Cc1ccccc1F)NCCCN1CCCCC1 | -1% |
| CCC(CC)c1nc(NCCC(=O)O)c2ccccc2n1 | -4% |
| Cc1ccnc(SCCn2c(N3CC(C)CC(C)C3)nc3c2c(=O)n(C)c(=O)n3C)n1 (stereo unspecified) | 5% |
| COc1ccc(Cc2nnc(NC(=O)c3c(-c4ccccc4)noc3C)s2)cc1 | -12% |
| CCCCC(c1nnnn1Cc1ccco1)N1CCN(C(=O)c2ccco2)CC1 (stereo unspecified) | -9% |
| O=C(Nc1ccccc1)Nc1ccccc1 | 6% |
| CCOc1ccc(OCC(=O)N2CCOCC2)cc1 | 6% |
| COc1ccccc1N1CCN(c2cc(=O)n(-c3ccccc3Cl)c(=O)[nH]2)CC1 | -4% |
| COc1ccc(CCN2C(=NC(=O)CCC(=O)O)SC3CS(=O)(=O)CC32)cc1OC (stereo unspecified) | -5% |
| Cc1ccc(NCc2nnc(SCC(=O)c3ccccc3)o2)c(C)c1 | -21% |
| CC(C)(C)C(=O)CSc1nccc(=O)[nH]1 | -9% |
| CCC(=O)N1CCc2cc(S(=O)(=O)CCC(=O)O)ccc21 | -3% |
| CC1CCCCN1CCNC(=O)C1CCN(S(=O)(=O)N2CCCCC2)CC1 (stereo unspecified) | 12% |
| O=C(CCc1ccccc1)n1nc(-c2ccccc2)nc1NCc1ccco1 | 67%[activator] |
| CCOC(=O)c1ccc(NC(=O)C2CCCO2)cc1 (stereo unspecified) | 8% |
| CCOC(=O)N1CCN(C(=O)CSCC(=O)Nc2nc(-c3ccc(Cl)s3)cs2)CC1 | -6% |
| Cn1c(=O)c2c(nc(CN3CCC(C(N)=O)CC3)n2Cc2c(F)cccc2Cl)n(C)c1=O | 5% |
| C[C@H](NC(=O)NCCc1ccccc1)C(=O)O | 12% |
| Nc1cc(-c2ccco2)no1 | 4% |
| CC(=O)Nc1ccc(S(=O)(=O)NC(CC(=O)NCCC2=CCCCC2)C(C)C)cc1 (stereo unspecified) | -4% |
| O=C(c1ccc(F)cc1)C1CCN(CCn2c(=S)[nH]c3ccccc3c2=O)CC1 | 9% |
| O=c1[nH]c2cc(Cl)ccc2n1-c1ccccc1 | 2% |
| O=C(Nc1cccc(F)c1)N1CC2(CCN(S(=O)(=O)c3ccccc3)CC2)C1 | -4% |
| CC(Oc1ccc(Br)cc1)C(=O)NCc1cccnc1 (stereo unspecified) | 5% |
| CCC(=O)N(Cc1cc2c(C)ccc(C)c2[nH]c1=O)C1CCCCC1 | 10% |
| COC(=O)C1=NOC2(C=C(Br)C(OC)=C(Br)C2=O)C1 (stereo unspecified) | -9%[11.4 µM] |
| C/C(=N\O)C(C)/[N+]([O-])=C/c1nc(C)c(C)n1O (stereo unspecified) | -2% |
| CCNc1ncc2nc(-c3cn(C)c4ccccc34)c(=O)n(C)c2n1 | ? |
| Cc1ccc(C)c(-n2c(Cc3cc(=O)[nH]c(=O)[nH]3)nnc2SC(C)C)c1 | 6% |
| COC(=O)c1oc2ccc(Br)cc2c1NC(=O)CCN1CCOCC1 | 14% |
| CC(=O)Nc1sc(C)c(C)c1CN1CCN(S(=O)(=O)c2ccccc2)CC1 | 4% |
| Cc1csc(NC(=O)CCN2C(=O)c3ccccc3S2(=O)=O)n1 | 0% |
| CCOc1ccc(CCNC(=O)C2CCCN(c3nnc(-n4cccc4)s3)C2)cc1OCC (stereo unspecified) | 3% |
| COc1ccc(-c2nnc(-c3cccnc3)o2)cc1OC | 16µM* |
| Fc1ccc2[nH]c3c(N4CCN(C5CCCCC5)CC4)ncnc3c2c1 | -28% |
| Cc1ccccc1-c1nc(CN2CCC(C(=O)NCC3CCCO3)CC2)c(C)o1 (stereo unspecified) | 3% |
| CN(Cc1ccccc1)c1nnc(N)s1 | -24% |
| Cc1cc(C)nc(SCc2nnc(SCC(=O)N3CCCc4ccccc43)o2)n1 | 4% |
| Cn1c(=O)oc2cc(S(=O)(=O)NC3CCCc4ccccc43)ccc21 (stereo unspecified) | -4% |
| CCC(=O)N1CCCc2cc(S(=O)(=O)N3CCC(N4CCCCC4)CC3)ccc21 | -1% |
| CCC(C)(C)NC(=O)C(c1cccn1C)N(Cc1ccccc1)C(=O)Cn1nnc2ccccc21 (stereo unspecified) | 1% |
| O=S1(=O)N=C(SCCO)c2ccccc21 | -4% |
| CCN1CCN(c2nc(-c3cccnc3)nc3ccccc23)CC1 | -4% |
| Cn1c(SCC(=O)NC(C)(C)C)nnc1-c1ccc(C(C)(C)C)cc1 | 2% |
| Cc1ccc(-n2nnc3c(=O)n(Cc4cccc(C)c4)cnc32)cc1 | 5% |
| O=C(CCC(=O)N1CCc2ccccc21)N1CCc2ccccc21 | 3% |
| OCCNc1ccc(Cl)cc1 | 2% |
| COc1ccccc1C1C(C(C)=O)=C(O)C(=O)N1CCc1ccccc1 (stereo unspecified) | -5% |
| COc1ccccc1CN1CCCC2(CCN(S(C)(=O)=O)CC2)C1 | 6% |
| Cc1cccc(N2C(=O)CC(Sc3nc(C)c4c(n3)CCCC4)C2=O)c1 (stereo unspecified) | -2% |
| O=C(c1coc2ccc(O)cc12)C1CC1 | -1% |
| O=C(CN(C1CCCCC1)S(=O)(=O)c1ccc(F)cc1)NCCCO | 3% |
| O=C(NCN1CCc2ccccc2C1)c1cnccn1 | 7% |
| O=C(c1cc(-c2ccc(O)cc2)on1)N1CCCc2ccccc21 | -8% |

Entries shown so far with an aryl methoxy group, in the order listed:
| mol | HSD17B inhib |
| --- | --- |
| COc1ccc(Cc2nnc(NC(=O)c3c(-c4ccccc4)noc3C)s2)cc1 | -12% |
| COc1ccccc1N1CCN(c2cc(=O)n(-c3ccccc3Cl)c(=O)[nH]2)CC1 | -4% |
| COc1ccc(CCN2C(=NC(=O)CCC(=O)O)SC3CS(=O)(=O)CC32)cc1OC (stereo unspecified) | -5% |
| COc1ccc(-c2nnc(-c3cccnc3)o2)cc1OC | 16µM* |
| COc1ccccc1C1C(C(C)=O)=C(O)C(=O)N1CCc1ccccc1 (stereo unspecified) | -5% |
| COc1ccccc1CN1CCCC2(CCN(S(C)(=O)=O)CC2)C1 | 6% |

New compounds follow.
| mol | HSD17B inhib |
| --- | --- |
| CN(C(=O)c1ccc(Cl)c(S(=O)(=O)N2CCOCC2)c1)c1ccccc1C(=O)O | 4% |
| CCOC(=O)N1CCN(C(=O)c2ccc3c(=O)n4c(nc3c2)CCCCC4)CC1 | -7% |
| CC1CCN(S(=O)(=O)c2ccc3c(c2)oc(=O)n3CC(=O)NCc2ccc3c(c2)OCO3)CC1 | -4% |
| CCOC(=O)N1CCN(C(=O)CSCC(=O)Nc2nc(-c3ccc4c(c3)OCO4)cs2)CC1 | -10% |
| CC(=O)N1CCN(c2ccc(NCc3ccccc3)cc2)CC1 | -29% |
| CCC(C)C(=O)Nc1cc(C(=O)OC)cc(C(=O)OC)c1 (stereo unspecified) | 6% |
| C/C(CCC(=O)OC[C@@H]1O[C@H](C#Cc2ccccc2)C=C[C@@H]1Oc1ccc(C)cc1)=N/O[C@@H](C)CN1CCCCc2nc(C)c(C)cc21 | -1%[11.4 µM] |
| COc1ccc(NC(=O)COn2nnc3ccc(Cl)cc32)cc1OC | 0% |
| CCOC(=O)C(C)Sc1nc(-c2ccco2)cc(C(F)(F)F)c1C#N (stereo unspecified) | 25µM* |
| COc1ccc(NC(=O)CN(c2ccccc2)S(=O)(=O)N(C)C)cc1OC | -17% |
| Cc1c(NC2=NC3(CCCCC3)Cc3ccccc32)c(=O)n(-c2ccccc2)n1C | 13% |
| COC(=O)[C@@H]1C[C@@]2(O)[C@@H](O)[C@@H](O)[C@@H](O)C[C@H]2N1Cc1ccc(C)s1 | 15% |
| Cc1ccc(C(=O)CSc2nnc(-c3cccs3)n2C)o1 | 5% |
| CCn1c(SCC(=O)N2CCOCC2)nnc1-c1cccs1 | 8% |
| Cc1cc(C)n(-c2nc(NC(C)C)nc(NC(C)C)n2)n1 | 10% |
| O=C1N(Cc2ccccc2)CCCC12CCCN(Cc1ccccc1)C2=O | 6% |
| O=C(CSc1nc2ccccc2n1-c1ccccc1)NCC1CCCO1 (stereo unspecified) | 1% |
| Cc1cc(-c2ccccc2)n2ncc(C#N)c2n1 | 25µM* |
| Fc1ccc(-c2nnc(SCc3ncc(-c4ccccc4)o3)n2CC2CCCO2)cc1 (stereo unspecified) | -13% |
| CCOC(=O)c1c(NC(=O)c2nc3n(n2)C(C(F)F)CC(C)N3)sc2c1CCCC2 (stereo unspecified) | 25µM* |
| Nc1nnc(-c2ccccc2)c(-c2ccccc2)n1 | 7% |
| Cc1ccc(-n2cc(C(C)(C)C)[nH]c2=S)cc1 | -11% |
| CC(CCC(=O)O)C1CCC2C3CC[C@H]4CC(O)CC[C@@]4(C)C3CC(O)[C@]12C (stereo partly specified) | 7% |
| CCC(C)(C)n1nnnc1C(c1cccs1)N1CCN(Cc2ccccc2)CC1 (stereo unspecified) | 7% |
| O=C1c2ccccc2-c2ccc(C(=O)N3CCOCC3)cc21 | -9% |
| CCOC(=O)Cn1c(N2CCOCC2)nc2c1c(=O)[nH]c(=O)n2C | 12% |
| C=CCn1c(SC(C)C(=O)NCc2ccc3c(c2)OCO3)nnc1C1CCCCC1 (stereo unspecified) | 6% |
| Cc1ccc(S(=O)(=O)N2CCOCC2)cc1C(=O)Nc1ccc(-c2cn3ccsc3n2)cc1 | -68% |
| O=C(c1ccc(Cc2nc3ccccc3[nH]2)cc1)N1CCOCC1 | 13% |
| Cc1cc(S(=O)(=O)N2CCN(c3ccccc3C)CC2)ccc1F | 7% |
| CCCCOC(=O)Nc1nnc(CCOCC)s1 | 25µM* |
| COc1ccc(-n2nc3c(c2NC(=O)c2c(-c4ccccc4Cl)noc2C)CS(=O)(=O)C3)cc1 | 12% |
| Cc1nc2ncnn2c(C)c1CCC(=O)Nc1csc(N)n1 | 7% |
| CCOC(=O)c1c(C)c(C(=O)NC(C)COC)c(C)n1C (stereo unspecified) | 7% |
| COc1ccc(-c2c(=O)n(OCc3ccccn3)c3ccccc3[n+]2[O-])cc1OC | -9% |
| O=S(=O)(c1ccc(-c2csc(-c3cccnc3)n2)cc1)N1CCCCC1 | -14% |
| CCOC(=O)c1ccc(NC(=O)Nc2ccc(S(N)(=O)=O)cc2)cc1 | 5% |
| O=C1OC(=O)[C@@H]2[C@@H]1[C@@H]1CC[C@H]2O1 | 6% |
| COc1nc(N2CCCCCC2)nc(N2CCCCCC2)n1 | -1% |
| CC(C)CN1CCc2nc(-c3ccccc3)c3c(c2C1)COC(C)C3 (stereo unspecified) | -2%[11.4 µM] |
| Cc1ccc2oc(=O)c3cnn(CC(=O)NCCN4CCOCC4)c3c2c1 | 6% |
| O=C(NCC(=O)N(CCc1ccccc1)C(C(=O)NC1CCCCC1)c1ccncc1)c1ccco1 (stereo unspecified) | 0% |
| CN(C)CCNC(=O)c1ccc(Cc2nc3ccccc3[nH]2)cc1 | 4% |
| COc1cc(OC)cc(OC)c1 | 7% |
| COC(=O)c1c(Cl)c(Cl)c(C(=O)OC)c(Cl)c1Cl | -7% |
| O=C(CC1NC(=O)NC1=O)NC1(C(=O)NC2CCCCC2)CCCCC1 (stereo unspecified) | 1% |
| Cc1ccccc1-n1nc2c(c1NC(=O)c1ccc(S(=O)(=O)N(C)C)cc1)CSC2 | 21% |
| COc1ccc(C(=O)N2CCC[C@@]3(CCN(c4ccccc4)C3)C2)cc1 | 4% |
| O=S(=O)(c1ccccc1)c1nc(Nc2ccccc2N2CCOCC2)sc1Cl | -12% |
| Clc1ccc(OCCCn2cncn2)cc1Cl | -1% |
| Cc1noc(/C=C/c2ccco2)c1S(=O)(=O)N1CCC(C(=O)N(C)Cc2ccccc2)CC1 | -5% |
| CCOC(=O)C1=C(C)N=C2SC(CC)C(=O)N2C1c1ccc(OC(C)=O)c(OCC)c1 (stereo unspecified) | 14% |
| O=C(Cn1nc(C(=O)O)c2ccccc2c1=O)NCC1CCCO1 (stereo unspecified) | 17% |
| Cc1ccc2[nH]c(=O)c(CN(CCCN3CCOCC3)Cc3nnnn3C3CCCC3)cc2c1 | 16µM* |
| COCCCNC(=O)Cn1ncc2c(=O)oc3ccccc3c21 | 10% |
| O=S(=O)(c1ccc(OCC(O)CN2CCN(c3ccccc3Cl)CC2)cc1)N1CCOCC1 (stereo unspecified) | 0% |
| CC(C)(C)NC(=O)C1N(c2cccnc2)C(=O)C2C(C(=O)Nc3ccccc3)C3(C)C=CC21O3 (stereo unspecified) | 1% |
| COc1cc(CN2CCN(C(=O)CC(C)C)CC2)cc(OC)c1O | 2% |
| CCOC(=O)CSc1nnnn1-c1cc(OC)c(Cl)cc1OC | -4% |
| COc1cc(C2C(C(=O)c3ccc(C)o3)=C(O)C(=O)N2Cc2cccnc2)ccc1O (stereo unspecified) | -28% |

(list continues)
| mol | HSD17B inhib |
| --- | --- |
| O=C(CSc1nnc(Cn2c(=O)sc3ccccc32)n1-c1ccccc1)N1CCOCC1 | -10% |
| N#Cc1nc(COc2ccccc2F)oc1N1CCCCCC1 | -8% |
| COc1ccc(C2=NCC(CSc3nnc(-c4ccc5c(c4)OCO5)o3)S2)cc1 (stereo unspecified) | -18% |
| O=C(c1ccc(S(=O)(=O)N2CCOCC2)cc1)N1CCN(c2cccc(Cl)c2)CC1 | 3% |

Screening data as filed in PubChem.

Only part of the results is shown; the hit share may differ from the screen's.
